# WNV protease inh = inhibitors of West Nile virus NS2B-NS3 protease; WNV NS2B-NS3 protease, fluorogenic substrate Ex360/Em465; stronger effect = lower value; z-score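 (tested at a level between 10 and 100 µM)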; P06935; AID 577; 65,000 compounds, 0.18% hits;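 active = z-score at -3 or under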;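 also: score is relative to mean and spread of the compound wells of a plate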
# Target sequence (P06935 1371-1501 limits assumed): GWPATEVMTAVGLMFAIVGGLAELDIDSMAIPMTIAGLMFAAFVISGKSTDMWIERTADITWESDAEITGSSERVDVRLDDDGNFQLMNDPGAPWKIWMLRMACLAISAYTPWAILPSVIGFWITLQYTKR
# Target sequence (P06935 1502-1679 limits assumed): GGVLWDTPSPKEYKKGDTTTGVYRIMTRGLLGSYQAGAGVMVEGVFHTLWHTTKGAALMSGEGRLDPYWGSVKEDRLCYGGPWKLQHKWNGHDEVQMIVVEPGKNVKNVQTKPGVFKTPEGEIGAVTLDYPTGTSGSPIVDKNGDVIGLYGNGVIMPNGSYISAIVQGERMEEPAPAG
# Hsc70 = small molecules displacing fluorescent ligand from Hsc70 – biochemical, fluorescence polarization, primary screen (AID 568). Hsc70 fluorescence polarization, probe displacement; higher % means a stronger effect; strong numbers were not always called active. displacement, % at 20 µM, or IC50 in µM where a hit was titrated. 83,000 tested, under 10 active;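 active = displacement above 50% without optical interference and an IC50 on retest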;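 also: ATPase domain with a fluorescein-tagged ATP probe; 0% = vehicle and 100% = excess ADP; read after one hour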
# MT1-MMP reporter = MT1-MMP gene expression reporter suppression – cell-based, luciferase reporter, luminescence (AID 618). MT1-MMP promoter luciferase reporter cells, luminescence. calls from a first round at 10 µM; hits with a dose series show EC50 in µM. 87,000 compounds, 0.62% hits;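 active = over half of the reporter light lost at 10 µM or EC50 under 50 µM; inactive = the rest and hits that failed the dose series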;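 also: actives suppress MT1-MMP promoter-driven transcription so potencies describe inhibitors; HT1080 fibrosarcoma cells; overnight exposure; toxic or luciferase-blocking compounds were not removed from the actives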
# An asterisk follows results filed as active; i = inactive; nt = no result given. An unsorted share of the library; 0.77% or so of the library scored in one or more.
# Below each SMILES: WNV protease inh, Hsc70, MT1-MMP reporter
> CCOC(=O)C1CCCN(C(=O)C2CCC(CNS(=O)(=O)c3ccc(NC(C)=O)cc3)CC2)C1 (stereo unspecified)
    1.1, 2.6%, i
> O=C(OCCN1C(=O)c2ccccc2C1=O)c1ccco1
    nt, 7.6%, i
> COc1ccc(CN2CCOCC2)c(C)c1C
    -0.56, 2.8%, i
> Cc1ncsc1C(=O)Nc1nc2c(s1)CCCC2
    -0.52, 6.4%, i
> Cc1cc(C)n(/N=C/c2ccccc2)c(=O)c1C#N
    -0.8, 0.0%, i
> CC1(C)CC(=O)C(C2(O)C(=O)N(Cc3ccccc3)c3ccccc32)CO1 (stereo unspecified)
    0.2, -1.4%, i
> Cc1ccc2nc(NC(=O)CCNS(=O)(=O)c3ccc(Br)s3)sc2c1
    -0.43, 0.6%, i
> N#Cc1cc(C(=O)c2cc(Cl)ccc2O)cn(CC2CCCO2)c1=O (stereo unspecified)
    -1.5, -8.0%, i
> CC1CC(C)(C)CC2(C1)NC(=O)N(CC(=O)NCC(c1ccco1)N1CCCCC1)C2=O (stereo unspecified)
    0.45, -2.2%, i
> CCOC(=O)C(C(=O)OCC)C1CCS(=O)(=O)C1 (stereo unspecified)
    nt, 3.6%, i
> Cc1nc(-c2cn[nH]c2)c2cc(C)oc2n1
    1.2, -3.1%, i
> O=C(C1CC1)N1CCN=C1SCc1cccc(C(F)(F)F)c1
    -1.3, -3.1%, i
> COc1ccccc1NC(=O)C1=C(C)NC(=O)NC1c1ccc(C)cc1 (stereo unspecified)
    0.03, -1.4%, i
> O=C(CCn1cccc1)NCc1ccc(Cl)cc1
    -0.06, 6.8%, i
> CN(C)CCCN1C(=O)C(O)=C(C(=O)c2cc3ccccc3o2)C1c1ccccc1 (stereo unspecified)
    0.3, 3.0%, i
> O=C(CCS(=O)(=O)c1ccc(Br)s1)NCc1cccs1
    -0.76, 5.5%, i
> CCCCN(CCCC)C(=O)CCS(=O)(=O)c1ccc2c(c1)n(C)c(=O)c(=O)n2C
    3.2, -0.5%, i
> N#CC1=C(SCC(=O)c2ccc(Cl)cc2)NC2=C(C(=O)CCC2)C1c1ccco1 (stereo unspecified)
    -1, -2.5%, i
> Cn1cc(C(=O)NC2CCCCC2)c(=O)c2cc(S(=O)(=O)N3CCCC3)ccc21
    0.9, 6.9%, i
> CCOC(=O)CN(C(=O)CNC(=O)c1ccco1)C(C(=O)NC1CCCCC1)c1cccc(OC)c1 (stereo unspecified)
    0.06, -0.1%, i
> CCCCC(=O)Nc1ccc(C(=O)Nc2ccc3c(c2)OCO3)cc1
    0.14, -0.7%, i
> C=CCSc1cc(C)nc2c(-c3ccc(Cl)cc3)c(C)nn12
    nt, 7.3%, i
> O=c1[nH]ncn2cccc12
    0.8, -0.9%, i
> NC(=O)C1CCN(C(=O)CSCc2ccccc2Cl)CC1
    -0.87, 2.6%, i
> COc1cc(OC)cc(C(=O)OCC(=O)Nc2ccc(N3CCCCC3)cc2)c1
    nt, -2.3%, i
> COc1ccc(C(C#N)Nc2ccccc2)cc1 (stereo unspecified)
    nt, -1.2%, i
> COc1cc2c(OC)cccc2cc1C(=O)O
    1.3, -2.1%, i
> O=C(O)c1cnn2c(C(F)F)cc(C3CC3)nc12
    nt, -0.1%, i
> Cc1ccc(CC2C(=O)N(c3ncccn3)C(=O)C2C)cc1 (stereo unspecified)
    -0.19, 1.9%, i
> Cc1cc(NC(=O)c2cc(Cl)ccc2Cl)no1
    -0.02, 3.3%, i
> Cc1ccc(-c2nnc(SC(C)C#N)n2N)cc1 (stereo unspecified)
    0.31, -3.8%, i
> COCCn1c(SCC(=O)N2CCc3ccccc32)nc2c(c1=O)SC(C)C2 (stereo unspecified)
    -2, 5.2%, i
> Cc1cc(C)n(-c2nc(C)nc3c2cnn3-c2ccccc2)n1
    0.19, -4.5%, i
> CC(CC1CC(C)(C)OC1=O)C(=O)Nc1nncs1 (stereo unspecified)
    nt, -6.1%, i
> COc1ccccc1-n1c(SCC(=O)Nc2nnc(C)s2)nc2c(c1=O)SCC2
    nt, -5.3%, i
> Fc1ccccc1Cn1nnc2c(NCc3ccccn3)ncnc21
    0.62, -0.3%, i
> NC(=O)C1CCN(c2nc(-c3ccccc3)nc3ccccc23)CC1
    -0.71, 9.2%, i
> O=C(NCc1ccccn1)C1CCCN(Cc2cnn(-c3ccccc3)c2-n2cccc2)C1 (stereo unspecified)
    -0.75, 5.8%, i
> O=C(O)CC1NC(=O)N(c2ccc(Cl)cc2)C1=O (stereo unspecified)
    0.75, -1.7%, i
> O=C(O)C1CCCCC1C(=O)NCCc1ccc(Cl)cc1 (stereo unspecified)
    -0.21, 1.3%, i
> Cc1ccc(C)c(N2CCN(C(=O)CCCOc3cc(=O)n(C)c4ccccc34)CC2)c1
    -0.48, 1.9%, i
> COC(=O)Cc1nc2ccccc2[nH]1
    0.45, -2.6%, i
> CCCCNc1ncnc2c1cnn2-c1ccc(C)cc1C
    1.4, 4.7%, i
> COC(=O)c1cc(Br)c(=O)n(-c2ccccc2F)c1
    nt, -2.2%, i
> Brc1ccc(Nc2c3c(nc4ncnn24)CCC3)cc1
    -0.62, 1.8%, i
> O=C(Nc1ccncc1)c1cncc(Br)c1
    -1.1, -1.8%, i
> Fc1ccc(CSc2nc3ncc(Br)cc3[nH]2)cc1
    nt, -4.7%, i
> Cc1[nH]c2ccccc2c(=O)c1CN(C)Cc1ccccc1
    -0.23, 0.8%, i
> Cc1nnc(Sc2nc3ccccc3o2)c2ccccc12
    -1.1, -0.2%, i
> CCc1nc(SCC(=O)N2CCCc3ccccc32)c2c(=O)n(C)c(=O)n(C)c2n1
    0.4, 3.5%, i
> COc1ccc(C2/C(=C(/O)c3ccccc3)C(=O)C(=O)N2CC(C)O)c(OC)c1 (stereo unspecified)
    -1.1, -6.4%, i
> CCn1nc(C)cc1Nc1ccccc1
    nt, -0.7%, i
> Cc1cccn2c(=O)c3cc(C(=O)N4CCCc5ccccc54)n(C)c3nc12
    -0.73, -3.1%, i
> Cc1ccc(Cl)cc1N1CCN(C(=O)Cc2c(C(=O)O)[nH]c3ccccc23)CC1
    nt, -0.4%, i
> COc1cc(CN/C(C)=C(\C#N)C(N)=O)cc(OC)c1OC
    -1, -1.0%, i
> COc1cc2c(cc1NC(=O)CSc1nnc(COc3ccc(Cl)cc3)n1C)oc1ccccc12
    nt, 0.7%, i
> Cc1ccc(-n2ncc3c(NCC4CCCO4)ncnc32)c(C)c1 (stereo unspecified)
    -1.3, -3.6%, i
> O=C(Cn1c(=O)oc2ccccc21)N(Cc1ccccc1)C1CCS(=O)(=O)C1 (stereo unspecified)
    0.34, 99%, i
> CNC(=O)c1snnc1-c1ccccc1
    nt, -4.1%, i
> COc1ccccc1N(CC(=O)Nc1ccc(S(=O)(=O)N2CCCCC2)cc1)S(C)(=O)=O
    nt, 3.1%, i

# Further results:
molecule | WNV protease inh | Hsc70 | MT1-MMP reporter
CCNc1nc2c(c(=O)n(Cc3ccccc3)c(=O)n2C)n1Cc1ccccc1 | -1.5 | 4.9% | i
Cc1occc1-c1nnc(SCC(=O)c2c(N)n(Cc3ccccc3)c(=O)n(C)c2=O)n1C | -0.32 | -2.5% | i
Cc1ccc(OCC2Cn3c(nc4c3c(=O)n(C)c(=O)n4C)O2)cc1 (stereo unspecified) | -0.31 | 1.1% | i
CCCCNC(=O)COC(=O)c1cc2c(C)nn(-c3ccccc3)c2s1 | 0.26 | -0.4% | i
Cc1ccc(C(N)=O)cc1S(=O)(=O)Nc1cccc(C)c1C | -0.77 | 3.2% | i
Cc1cccc(C)c1NC(=O)CNc1ccccc1 | 0.1 | 1.2% | i
CCN(C(=O)COC(=O)c1cc(C)n(-c2ccc(F)cc2)c1C)C1CCS(=O)(=O)C1 (stereo unspecified) | -0.79 | -3.6% | i
O=C(CSCc1ccc(F)cc1)NCc1ccco1 | nt | -1.2% | i
O=C(c1ccco1)N1CCN(c2ncnc3scc(-c4ccccc4)c23)CC1 | nt | 8.3% | i
O=S(=O)(c1ccc(OCC(O)CN2CCCCC2)cc1)N1CCOCC1 (stereo unspecified) | nt | -0.3% | i
O=C1OCCC1Sc1nc(-c2ccccc2)cs1 (stereo unspecified) | 1.1 | 7.6% | i
CCn1c(SCC(=O)Nc2cc3oc4ccccc4c3cc2OC)nnc1-c1cccs1 | -1.9 | 6.0% | i
Cc1ccc(OCC(=O)Nc2ccc(S(=O)(=O)Nc3onc(C)c3C)cc2)cc1 | 1.7 | -3.7% | i
Cc1ccc(-c2c3c(=O)n(C)c(=O)n(C)c3cn2N2CCOCC2)cc1 | 0.97 | -7.4% | i
COc1ccc(-c2cc(C(F)(F)F)n3nc(C(=O)N4CCOCC4)nc3n2)cc1 | 0.15 | 0.6% | i
CCC(CO)NCc1ccc2c(c1)n(C)c(=O)n2C (stereo unspecified) | -0.19 | -5.4% | i
CC1CCN(S(=O)(=O)N2CCC(C(=O)NCc3cccs3)CC2)CC1 | 0.4 | 4.6% | i
C=CCOc1ccccc1C1C2=C(CC(C)(C)CC2=O)Nc2c1c(=O)n(C)c(=O)n2C (stereo unspecified) | 1.4 | -3.9% | i
Cn1c(=O)c2c(nc(SCCN3CCCCC3)n2C)n(C)c1=O | nt | 1.3% | i
Cn1nnnc1SCC(=O)c1ccc(Br)s1 | nt | 5.5% | i
CCN(CC)c1ccc2c(c1)oc(=O)c1c(Cl)cc(=O)oc12 | -0.89 | 25% | i
CCc1nnc(NC(=O)CSc2nc3cccnc3n2C2CCCCC2)s1 | 0.69 | 1.3% | i
COCCCNC(=O)Cn1nnc(-c2ccccc2NC(=O)c2ccccc2F)n1 | -0.17 | -1.3% | i
S=c1[nH]nc(-c2ccco2)n1-c1cccc2ccccc12 | 1.6 | 1.3% | i

# One compound at a time (already shown). Values in the order: WNV protease inh, Hsc70, MT1-MMP reporter
# Cc1ccc(OCC(=O)Nc2ccc(S(=O)(=O)Nc3onc(C)c3C)cc2)cc1 is listed as 1.7, -3.7%, i
# Cc1ccc(-c2c3c(=O)n(C)c(=O)n(C)c3cn2N2CCOCC2)cc1 is listed as 0.97, -7.4%, i
# COc1ccc(-c2cc(C(F)(F)F)n3nc(C(=O)N4CCOCC4)nc3n2)cc1 is listed as 0.15, 0.6%, i
# Cn1c(=O)c2c(nc(SCCN3CCCCC3)n2C)n(C)c1=O is listed as nt, 1.3%, i
# CCN(CC)c1ccc2c(c1)oc(=O)c1c(Cl)cc(=O)oc12 is listed as -0.89, 25%, i

# (continued)
molecule | WNV protease inh | Hsc70 | MT1-MMP reporter
O=C(CSc1nc2ccccc2[nH]1)Nc1ccc2c(c1)OCCO2 | -1.3 | 1.4% | i
O=c1ccsn1Cc1ccccc1 | -0.57 | -1.9% | i
CCOC(=O)c1ccc(NC(=O)CSc2nnc(C3CC3)n2C)cc1 | nt | -2.4% | i
Cc1ccc(N2CCN(C(=O)C3CCN(S(=O)(=O)c4cccc5nsnc45)CC3)CC2C)cc1 (stereo unspecified) | 1.7 | 1.8% | i
O=C(Nc1nccs1)c1cc(S(=O)(=O)N2CCOCC2)c(Cl)cc1Cl | nt | -2.2% | i
COC(=O)/C=c1/s/c(=C(\C#N)C(=O)NCc2ccco2)n(-c2ccc(C)cc2)c1=O | 0.83 | -94% | i
COC(=O)C1=C(C)NC(C)=C(C(=O)OC)C1c1ccccc1[N+](=O)[O-] | -0.12 | 6.8% | i
COc1ccc(C(=O)COC(=O)C(CCCCN2C(=O)C3C4C=CC(C4)C3C2=O)N2C(=O)C3C4C=CC(C4)C3C2=O)cc1 (stereo unspecified) | nt | -1.8% | i
CS(=O)(=O)N1CCN(C(=O)c2ccccc2F)CC1 | 0.38 | 3.7% | i
O=C(Cn1nc(-c2ccccc2)c2ccccc2c1=O)Nc1cccnc1 | nt | 1.5% | i
COC(=O)c1ccc(NS(=O)(=O)c2cccc3cccnc23)cc1 | nt | -7.0% | i
COc1ccccc1CNC(=O)CN1CCN(Cc2ccc(Cl)cc2)C1=O | 0.16 | 3.4% | i
CC(=O)NCCn1c(SCC#N)nc2ccccc2c1=O | -0.48 | -3.0% | i
O=C(O)C1C2C=CC(C2)C1C(=O)OC1CC2CCC1C2 (stereo unspecified) | 0.25 | 3.0% | i
Cc1ccc(NCN2C(=O)C3CC=C(Cl)CC3C2=O)cc1 (stereo unspecified) | nt | -3.6% | i
COC(=O)CSc1nc2ncc(Cl)cc2[nH]1 | -0.09 | -1.9% | i
CC(=O)NC(CCS(C)(=O)=O)C(=O)Nc1ccc(C)c(F)c1 (stereo unspecified) | 0.62 | -2.3% | i
CCc1ccc(N2CSC3=C(C#N)C(c4cccs4)CC(=O)N3C2)cc1 (stereo unspecified) | -0.63 | -4.6% | i
Cc1cc(C)c(C)c(S(=O)(=O)NCC(=O)N2CCCC2)c1C | 1.9 | 0.8% | i
CC(=O)c1ccc2c(c1)C1C=CCC1C(c1ccncc1)N2 (stereo unspecified) | nt | 2.1% | i
CN1CCN(CCCNC(=O)C2CCN(c3nnc(-n4cccc4)s3)CC2)CC1 | -0.04 | 5.6% | i
CN(C)CCNC(=O)c1ccc2c(c1)N(Cc1ccc(F)cc1)CCS2 | 2.8 | -1.5% | i
Nc1ccc2c(c1)C(=O)N(CCCC(=O)O)C2=O | -0.21 | 5.0% | i
CCOc1cc(C)c(C(C)C)cc1S(=O)(=O)N1CCOCC1 | 2.5 | 2.4% | i
COc1ccc2cc3cc(C(=O)Nc4ccc5c(c4)OCCO5)oc3nc2c1 | -1.1 | 1.8% | i

# Compound activity deposited in PubChem by several laboratories.
